GLA inh pH 4.5 – qHTS Assay for Inhibitors of Human alpha-Galactosidase at pH 4.5; Alpha-galactosidase A (Homo sapiens), P06280; activity change, negative = inhibition, % at 105 µM; AID 1467, 2008; 230,000 tested, under 10 active; purified enzyme, 4-MU-alpha-Gal fluorescence, pH 4.5; inconclusive = small, poorly fitted or top-dose-only inhibition, or a rising curve; inactive = flat fitted curve, though single readings scatter; no compound was filed as active;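 note: 0% = full activity with enzyme and -100% = basal without enzyme; dose as in the result columns while the protocol names 77 µM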
Target sequence (P06280 whole entry, looked up): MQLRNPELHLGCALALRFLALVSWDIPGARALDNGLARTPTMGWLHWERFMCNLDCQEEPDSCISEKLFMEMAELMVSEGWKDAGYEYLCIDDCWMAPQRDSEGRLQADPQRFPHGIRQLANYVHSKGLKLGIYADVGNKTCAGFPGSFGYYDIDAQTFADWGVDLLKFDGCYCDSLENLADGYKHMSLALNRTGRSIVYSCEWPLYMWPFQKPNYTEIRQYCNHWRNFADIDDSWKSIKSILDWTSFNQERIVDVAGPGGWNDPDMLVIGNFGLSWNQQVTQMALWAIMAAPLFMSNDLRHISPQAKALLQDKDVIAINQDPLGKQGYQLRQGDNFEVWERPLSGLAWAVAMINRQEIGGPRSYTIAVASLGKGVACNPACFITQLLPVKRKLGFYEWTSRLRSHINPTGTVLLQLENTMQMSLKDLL
miR-21 reporter – qHTS Assay for Modulators of miRNAs and/orActivators of miR-21. HeLa miR-21 FLuc reporter, luciferase, 48 h. Potency, µM (top dose mostly 38.3 µM), without a hit: top-dose reporter change, positive = more light. 340,000 tested, under 10 active; active = well fitted rising curve with a large enough effect; inconclusive = small, poorly fitted or top-dose-only effect; inactive = no such curve, though single readings can be large or run the other way;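 note: % of control where 0% means no effect; miR-21 action dims this reporter so a rising signal means less miR-21 action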
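Luminescence from a firefly luciferase reporter carrying a miR-21 binding site downstream, stably expressed under a CMV promoter in HeLa cells that make miR-21 endogenously, reports miRNA modulation after 48 h compound exposure up to approximately 40uM final.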
Rango release inh – qHTS Assay for Inhibitors of RanGTP induced Rango (Ran-regulated importin-beta cargo) - Importin beta complex dissociation. 340,000 compounds, 0.071% hits. Snurportin-1 (Homo sapiens) + GTP-binding nuclear protein Ran (Homo sapiens) + Importin …. Potency, µM (titrated, usually from 46.1 µM), inactives show at the top dose activity change, negative = inhibition. Biochemical FRET Rango-importin beta, RanGTP-induced dissociation; active means falling FRET ratio curve, often poorly fitted, with flat reads before Ran was added; inconclusive means other falling curves, or compound fluorescence or quenching; inactive means flat or rising ratio curve;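 note: potency is the fitted concentration of half-maximal effect; % of control where 0% means no effect; nearly all actives have a fitted effect of over 45% in size; -100% = wells without RanGTP and RCC1; the record marks most hits as doubtful in a second field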
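Rango (0.1 uM)–importin beta (0.25 uM) complex; RanGTP-RCC1 trigger; 45 min RT; CFP/YFP FRET read.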
Rango-impB inh – qHTS Assay for Inhibitors of Rango (Ran-regulated importin-beta cargo) - Importin beta complex formation; Importin subunit beta-1 (Homo sapiens), Q14974; Rango CFP/YFP FRET sensor + importin beta, 45 min; Potency, µM (highest dose often 92.2 µM), for the others: at the highest dose inhibition of complex formation; 340,000 compounds, 0.031% hits; AID 540263, 2011; active = rising FRET ratio curve, often small or poorly fitted; inconclusive = mostly compound fluorescence or quenching in the first reads; inactive = flat curves in all reads;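 note: potency is the fitted concentration of half-maximal effect; 0% = DMSO wells and 100% = buffer wells lacking importin beta; nearly all actives have a fitted effect of over 15% in size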
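FRET biosensor Rango (snurportin 1 IBB between N-terminal EYFP and C-terminal Cerulean), 50 nM in PBS/1 mM DTT/0.02% Tween-20/0.1% BSA, preincubated 5 min RT with compound; 0.125 microM importin beta added, 45 min RT, CFP/YFP FRET ratio read.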
The depositor's hits bear a star; ? = inconclusive; / = not tested or not shown.

| molecule | GLA inh pH 4.5 | miR-21 reporter | Rango release inh | Rango-impB inh |
| --- | --- | --- | --- | --- |
| COc1ccc(-c2cc(C(F)F)nc(-n3nc(C)cc3C)n2)cc1 | 3 | 8% | 2% | -0.5% |
| CCOC(=O)c1cnn2c(C(F)(F)F)cc(-c3ccccc3)nc12 | 7 | -9% | -5% | ? |
| CC(C)NC(=O)Nc1ccc2c(c1)C(=O)N([C@H](C)CO)C[C@H](C)[C@@H](CN(C)S(=O)(=O)c1cccs1)O2 | / | / | 4% | 1.5% |
| CC1CCCN(C(C(=O)Nc2ccc(C(C)C)cc2)c2ccc3c(c2)OCO3)C1 (stereo unspecified) | -2 | -7% | 6% | -3.0% |
| Cc1ccc(C(=O)O/N=C/c2c(Cl)n(C)c3ccccc23)cc1 | -5 | 1% | 9% | -0.2% |
| CC(C)CNCC1OCc2ccccc2CO1 | -3 | -4% | 1% | -4.9% |
| CCCCN1C(=O)C(=Nc2cccc3cnccc23)c2ccccc21 | -28 | 15% | 5% | -2.7% |
| Cc1nn(-c2cc(N3CCOCC3)ccc2[N+](=O)[O-])c(=O)c2ccccc12 | 1 | -10% | 36% | 4.4% |
| COC(=O)c1ccc(Cn2nc(C(F)(F)F)cc2C)cc1 | 12 | -4% | 2% | 0.6% |
| COc1ccc(NC2CCCN(C(=O)c3cccc(C(F)(F)F)c3)C2)cc1OC (stereo unspecified) | / | 10% | 0% | ? |
| COC(=O)C1CC(=O)N(c2ccc(C)cc2)C1 (stereo unspecified) | 7 | -4% | -15% | -2.5% |
| CC1CN(C(=O)c2ccc(NS(=O)(=O)c3ccc(C(C)(C)C)cc3)cc2)CC(C)O1 (stereo unspecified) | / | 8% | 0% | ? |
| Cc1cc(C)n(-c2ccc(C(=O)Nc3nc4ccccc4s3)cc2)n1 | 0 | -28% | -14% | ? |
| C/C(=N\Nc1cccc([N+](=O)[O-])c1)c1cc(F)ccc1O | -1 | -39% | 0% | 1.6% |
| CCCOc1ccc(-c2nc(SCc3ccccc3)[nH]c(=O)c2C#N)cc1OC | / | -1% | 0% | 2.0% |
| Cc1ccc2ncnc(NCCCN3CCOCC3)c2c1 | 2 | 1% | 8% | 2.6% |
| Cc1cccc2cc(CN(Cc3ccco3)S(=O)(=O)c3ccc4c(c3)OCCO4)c(=O)[nH]c12 | -8 | 8% | 36% | 1.2% |
| Cc1ccc(C(=O)Nn2c(C)nc3ccccc3c2=O)cc1C | / | 2% | -6% | -0.9% |
| COc1ccc(-n2nc(C#N)c(Cl)cc2=O)cc1 | -10 | ? | -10% | 8.9% |
| Nn1c(SCC(=O)N2CCOCC2)nnc1-c1ccccc1Cl | -7 | -5% | 0% | -2.9% |
| CCc1ccc(NC(=O)[C@H](C)NC(=O)C2CCN(C(=O)[C@@H](N)Cc3ccccc3)CC2)cc1 | / | -9% | ? | 0.5% |
| Cc1ccc(Sc2ncccc2O)cc1 | / | / | -12% | 0.2% |
| Cc1c(/C=N/NC(=O)c2cc(C(C)(C)C)[nH]n2)c2ccccc2n1C | 19 | -6% | 1% | -2.6% |
| CN1C(=S)N2CCCN2C1c1ccccc1 (stereo unspecified) | 5 | 2% | 6% | 0.1% |
| O=C(Nc1cccc(-c2nc3ccccc3s2)c1)c1cc(-n2cnnc2)ccc1Cl | 6 | -2% | -4% | -1.3% |
| Cc1cc(C)cc(C(=O)NCc2ccc3c(c2)OCO3)c1 | / | -10% | 5% | 0.1% |
| O=C(O)/C=C/C(=O)Nc1nc(-c2ccc3ccccc3c2)cs1 | / | / | -1% | -4.6% |
| Cc1ccc(NC(=O)c2cnccn2)c(C)c1 | / | -31% | -1% | -0.3% |
| NNC(=O)/C(=N/Nc1ccccc1)S(=O)(=O)c1ccc(Cl)cc1 | -2 | 9% | -5% | 7.4% |
| COc1ccc(N2Cc3ccccc3C2=NC(=O)c2ccc(C)cc2)cc1OC | -5 | -17% | -4% | -1.0% |
| CCN1CCN(C(=O)C2c3cc(OC)c(OC)cc3C(=O)N3CCc4ccccc4C23)CC1 (stereo unspecified) | 11 | -7% | 9% | -1.0% |
| Cc1cccc(OCC(=O)NCC(=O)N/N=C/c2cc(Br)ccc2OCc2ccccc2)c1 | 1 | -9% | 17% | -0.6% |
| CCn1c(C)c(C(=O)O)c2cc(OC)c3ccccc3c21 | / | 8% | 5% | 0.7% |
| COCCNC(=O)Cn1cc(/C=C(\C#N)C(=O)NC2CC2)c2ccccc21 | / | -1% | -21% | ? |
| Cc1cc(-c2csc(N)n2)c(C)n1CCC(C)C | 0 | -6% | ? | ? |
| COC(=O)c1cc(Br)c(=O)n(-c2ccccc2OC)c1 | 7 | -2% | 4% | 2.9% |
| COC(C(=O)Nc1ccc(S(=O)(=O)Nc2ccc(F)cc2)cc1)c1ccccc1 (stereo unspecified) | 5 | 12% | 0% | 1.1% |
| Cc1cccc(Nc2nc(C)cc(C)n2)c1 | / | -12% | 14% | 0.8% |
| COC(=O)CSc1nc2ccccc2nc1SCC(=O)OC | -16 | -4% | -5% | -1.9% |
| CNCC(=O)N(CC(C)C)c1c(N)n(CC(C)C)c(=O)[nH]c1=O | 0 | 3% | 2% | 5.8% |
| COc1ccc(-n2nnnc2CNC(=O)C(=O)c2c(C)[nH]c3ccccc23)cc1 | / | / | -1% | 0.2% |
| Cc1ccc(-c2csc(N/N=C/C=C/c3ccccc3)n2)cc1 | -2 | -29% | -27% | -2.7% |
| CCCn1nnc(NCc2ccc(OCc3cccs3)c(OC)c2)n1 | -9 | -2% | -11% | -2.6% |
| O=C(Nc1nc2ccc(F)cc2s1)c1cccs1 | 0 | -12% | -2% | -0.8% |
| CC1=NN(C(=O)c2ccc(Cn3nc(C)c(Br)c3C)cc2)C(O)(C(F)(F)F)C1 (stereo unspecified) | 5 | -9% | -14% | 1.2% |
| COc1ccc(NC(=O)CCCn2cnc3ccccc3c2=O)c(OC)c1 | / | -4% | 3% | -0.5% |
| Cc1ccnc(NS(=O)(=O)c2ccc(NC(=O)C3CC=CCC3C(=O)O)cc2)n1 (stereo unspecified) | 3 | -3% | 18% | -2.6% |
| CCC(Oc1ccccc1)C(=O)Nc1ccccc1OC (stereo unspecified) | 1 | -16% | 2% | -5.6% |
| COc1ccc2oc(=O)c(C(=O)NC(C)c3ccccc3)cc2c1 (stereo unspecified) | / | -3% | -24% | ? |
| Cc1nnc(NC(=O)c2nc(S(=O)(=O)Cc3ccccc3)ncc2Cl)s1 | / | ? | 3% | -0.4% |
| COc1ccc(C2=NN(C(=O)COC(=O)c3ccc(NC(=O)CC#N)cc3)C(c3ccco3)C2)cc1 (stereo unspecified) | / | / | -6% | ? |
| O=C(NCc1cccnc1)c1nn2cccnc2c1Cl | 7 | -5% | -3% | 5.9% |
| COc1ccc(-n2c(/C=C(\C)O)nc(=O)c3c(C)cc(C)nc32)cc1 | 7 | 11% | -12% | -2.0% |
| O=C(NCCc1ccc2c(c1)OCCO2)c1cc2ccccc2o1 | 3 | -8% | -6% | 0.6% |
| CCNC(=S)NNC(=O)c1ccc2ncccc2c1 | 3 | -3% | 2% | -0.7% |
| O=C1CCCN2N=C(SCC(=O)Nc3ccc([N+](=O)[O-])cc3)SC2=N1 | / | 6% | -15% | -4.1% |
| O=C(CN1CCN(c2ccccc2)CC1)NC(=O)NCc1ccco1 | 10 | 0% | 9% | -3.2% |
| O=c1c2c(c(-c3ccccc3)nn1Cc1ccccc1)CCCC2 | / | -7% | 14% | -4.5% |
| CCCNC(=O)c1oc2ccc3c(c2c1C)C(O)CC(C)(C)O3 (stereo unspecified) | / | -27% | -8% | -2.7% |
| CN(CC1COc2ccccc2O1)C(=O)Cn1cc(C(F)(F)F)ccc1=O (stereo unspecified) | / | / | 13% | -2.9% |

The listing continues.
| molecule | GLA inh pH 4.5 | miR-21 reporter | Rango release inh | Rango-impB inh |
| --- | --- | --- | --- | --- |
| CCOC(=O)NC(=O)CSc1ccc(S(=O)(=O)N(C)C2CCCCC2)cn1 | / | / | 28% | 6.0% |
| Cc1c(Br)c([N+](=O)[O-])nn1CC(=O)Nc1c(C)n(C)n(-c2ccccc2)c1=O | 5 | 1% | 20% | 0.1% |
| Cc1nc2ccccc2nc1N1CCOCC1 | 1 | -4% | -3% | -1.0% |
| Cc1ccccc1Nc1nc2nonc2nc1N1CCOCC1 | 2 | -9% | 4% | 0.1% |
| NC(=O)C1CCN(c2cc(Cl)nc(N)n2)CC1 | 0 | -3% | -3% | -0.7% |
| COc1ccc(-c2[nH]n(-c3ccc([N+](=O)[O-])cc3)c(=O)c2C=NCc2ccccc2)cc1 | -12 | -6% | 10% | 0.6% |
| Cc1ccccc1CN1CCC(Oc2ccc(C(=O)NCc3ccccn3)cc2)CC1 | / | 5% | -15% | 0.8% |
| O=C(CN(C(=O)CCC(=O)Nc1nccs1)c1ccc(F)c(Cl)c1)NCc1ccco1 | -4 | -4% | 1% | -0.7% |
| COC(=O)[C@H](C(C)C)N(Cc1ccccc1)S(=O)(=O)CCNC1CCCC1 | / | / | -8% | -2.3% |
| Cc1c(Br)ccc(NC(=O)CCN2C(=O)C3C4CCC(C4)C3C2=O)c1C (stereo unspecified) | 3 | -32% | -14% | -3.4% |
| CC(=O)Nc1ccc(S(=O)(=O)NC2=NCN(CCOC(=O)c3ccccc3)CN2)cc1 | 2 | -5% | 14% | -4.1% |
| Cn1c(N)c(C(=O)COC(=O)c2ccccc2C(=O)c2ccc(Cl)cc2)c(=O)n(C)c1=O | / | / | 11% | ? |
| COc1cc2nc(CN3CCN(S(=O)(=O)c4ccc(Br)cc4)CC3)[nH]c(=O)c2cc1OC | / | / | 5% | -1.6% |
| O=C(NC1CC1)c1ccc(COc2ccc(F)cc2)o1 | 5 | -6% | -11% | -1.7% |
| OCCCN=C1CCCc2c1[nH]c1ccc(Cl)cc21 | 3 | -11% | 1% | 1.2% |
| CC(C)Sc1nnc(Cn2c(=O)sc3ccccc32)n1-c1ccccc1 | -7 | 0% | ? | 0.1% |
| Cc1nn(Cc2c(F)c(F)c(F)c(F)c2F)c(C)c1NC(=O)c1ccc(COc2ccc(Cl)cc2Cl)o1 | -11 | 21% | 1% | 2.9% |
| CC(OC(=O)c1ccccc1C(=O)N(C)Cc1ccccc1)C(=O)NC1(C#N)CCCCC1 (stereo unspecified) | / | / | -11% | -0.8% |
| COc1ccccc1NC(=O)Cc1noc(CSc2nnc(C)s2)n1 | -10 | 0% | -24% | -1.0% |
| Nc1ccc(C(=O)N2CCCC2)cc1CS(=O)(=O)c1ccc(Cl)cc1 | 1 | -2% | -15% | 2.6% |
| C/C(=N\NC(N)=O)C1CC(Cc2ccccc2)C(=O)O1 (stereo unspecified) | / | -6% | -10% | -1.7% |
| Nc1ncnc(Nc2cccc(C(F)(F)F)c2)n1 | -6 | -41% | -17% | -2.6% |
| COc1cc(C(=O)NCc2nnc(SCC(=O)N3CCCc4ccccc43)o2)cc(OC)c1OC | -23 | 7% | 5% | -0.1% |
| CCCOc1ccc(C(=O)NC(=S)Nc2nc3ccc(C)cc3s2)cc1 | 9 | -4% | / | / |
| COCCNC(=O)C(c1cccs1)N(Cc1ccccc1)C(=O)Cn1nnc2ccccc21 (stereo unspecified) | 3 | -12% | -4% | -0.6% |
| CCN1CCN(CC(=O)Nc2c(C(=O)OC)[nH]c3cccc(Cl)c23)CC1 | -3 | -2% | / | / |
| N#CC1=C(N)Oc2nc(-c3ccccc3)[nH]c2C1c1cccnc1 (stereo unspecified) | 5 | -3% | -1% | 1.7% |
| Cc1cc(-c2ccccc2)nc2c(Br)c(C(=O)O)nn12 | / | / | -9% | 0.0% |
| COCCNc1oc(/C=C/c2ccccc2)nc1C#N | ? | -71% | -5% | ? |
| CCN(CC)CCc1nc(-c2ccccc2)no1 | 7 | / | -15% | 0.0% |

Retrieved one by one from the entries so far (2):
| molecule | GLA inh pH 4.5 | miR-21 reporter | Rango release inh | Rango-impB inh |
| --- | --- | --- | --- | --- |
| COCCNC(=O)C(c1cccs1)N(Cc1ccccc1)C(=O)Cn1nnc2ccccc21 (stereo unspecified) | 3 | -12% | -4% | -0.6% |
| COCCNc1oc(/C=C/c2ccccc2)nc1C#N | ? | -71% | -5% | ? |

Screens: PubChem BioAssay, National Center for Advancing Translational Sciences (NCATS)

A portion of the library (hit frequency here may not be typical).
